High-throughput results deposited in PubChem BioAssay by several laboratories.
UCH37 DUB inh – inhibitors of human UCH37 deubiquitinase, primary screen, biochemical, Ub-AMC cleavage, fluorescence. hit rate 0.33% among 330,000. purified proteasome/UCH37. Ubiquitin carboxyl-terminal hydrolase isozyme L5 (Homo sapiens), Q9Y5K5. inhibition, % (test concentration not listed);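 active = mean of two replicates above 20%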;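 also: 0% = compound-free wells with enzyme and 100% = wells lacking proteasome; stock transfer was 100 nL into about 20 µL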
Target sequence (Q9Y5K5 whole entry, looked up): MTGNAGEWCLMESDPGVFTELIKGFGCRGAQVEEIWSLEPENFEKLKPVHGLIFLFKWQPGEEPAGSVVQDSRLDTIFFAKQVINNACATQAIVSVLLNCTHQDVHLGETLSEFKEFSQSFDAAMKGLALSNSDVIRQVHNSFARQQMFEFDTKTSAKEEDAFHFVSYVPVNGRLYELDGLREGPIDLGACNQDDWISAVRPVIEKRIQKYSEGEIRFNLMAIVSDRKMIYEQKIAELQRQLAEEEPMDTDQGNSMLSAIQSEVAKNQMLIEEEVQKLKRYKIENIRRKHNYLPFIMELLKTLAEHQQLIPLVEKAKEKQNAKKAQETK
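assay system = human UCH37 enzyme supplied as purified proteasome complex | amount = proteasome at 0.15 nM in the dispensed enzyme solution | schedule = 30 min compound-proteasome preincubation then 25 min substrate reaction, room temperature | measured by = fluorescence, ex 355 nm, em 460 nm | benchmarks = no-proteasome wells (full inhibition) and compound-free wells (no inhibition)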
Bfl-1 A1 inh – caspase 3/7 activation in MEF A1-2A-BIM cells, primary screen, A1 inhibitor project, cell-based, luminescence, HTS. hit rate 0.066% among 330,000. AID 2462, 2010. Caspase-Glo 3/7 luminescence, 3 h; percent of clofoctol response, vehicle zero. caspase activation, % (concentration not given with the values);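 active = over half of replicate activation scores above 10%, or exactly half above 10 with the replicate mean above 10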;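 also: wells of about 30 µL received 50 nL stock; many hits fall short of the cut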
HNF4A DNA FP – change in binding of human HNF4A to DNA, primary screen, biochemical, fluorescence polarization, FITC-DNA; Hepatocyte nuclear factor 4-alpha (Homo sapiens), P41235; 1 h; activity change, % at 10 µM; hit rate 0.3% among 360,000; AID 1224865, 2016; in the data active = activity change above about 30%, passing the limit was not always enough;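 also: controls were the assay level and a saturating level of protein; the project sought stronger binding though the title names inhibitors; some compounds called inactive have numbers as strong as hits; positive values seem to mean higher polarization but the record does not say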
LANA-H2A inh – blockers of LANA interaction with H2A/H2B – biochemical, FP readout, HTS, primary screen; Protein LANA1 (Human herpesvirus 8 type P (isolate GK18)), Q9QR71; AID 2629, 2010; inhibition, % (concentration not given with the values); cell-free LANA-H2A/H2B peptide, fluorescence polarization; hit rate 0.6% among 320,000; in the data active = inhibition mostly above about 10%, no sharp cut-off; inactive = mostly below about 6.7%;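 also: stock transfer was 7.5 nL into about 10 µL; 0% = median of vehicle wells and 100% = median of positive control wells; one replicate is shown; the record names a cut of 25% in any replicate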
Vif A3G – inhibitors of Vif binding to APOBEC3G peptide, primary screen, biochemical, TR-FRET, GST-Vif 1-94, biotin-A3G peptide, dose response retest (AID 1117319). TR-FRET GST-Vif / biotin-A3G peptide binding; higher % means a stronger effect; test concentration not given here; strong numbers were not always called active. inhibition, %, or IC50 in µM where a hit was titrated. hit rate 0.57% among 260,000;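 active = above the screen mean plus three standard deviations and confirmed in dose response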;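 also: Vif residues 1-94 fused to GST binding biotinylated APOBEC3G peptide 110-148; 0% = full assay without inhibitor and 100% = GST in place of GST-Vif; retest series ran down from 100 µM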
E coli growth – E. coli growth inhibition, primary screen, OD600. hit rate 0.21% among 330,000. OD600 absorbance (no concentration beside the values). Escherichia coli growth, 23 h; hits give low values;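 active = OD600 absorbance below the run mean of sample wells minus 3.6 SD, in any replicate, cut at about 0.56 in these data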;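 also: stock transfer was 300 nL into about 60 µL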
B2AR ag – beta2AR agonists driving receptor internalization, primary screen, cell-based, FAP fluorogen, flow cytometry; Am2.2-beta2AR cells; reference of the scale not given here; response, % (test concentration not listed); hit rate 0.43% among 340,000; AID 504454, 2011;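 active = response above a set limit, near 3 SD of response in nonfluorescent compounds, cut at about 42% in these data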;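 also: stock transfer was 100 nL into about 11 µL; a reference agonist was the positive control; negative values mostly stem from fluorescent compounds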
Target sequence (P07550 whole entry, looked up): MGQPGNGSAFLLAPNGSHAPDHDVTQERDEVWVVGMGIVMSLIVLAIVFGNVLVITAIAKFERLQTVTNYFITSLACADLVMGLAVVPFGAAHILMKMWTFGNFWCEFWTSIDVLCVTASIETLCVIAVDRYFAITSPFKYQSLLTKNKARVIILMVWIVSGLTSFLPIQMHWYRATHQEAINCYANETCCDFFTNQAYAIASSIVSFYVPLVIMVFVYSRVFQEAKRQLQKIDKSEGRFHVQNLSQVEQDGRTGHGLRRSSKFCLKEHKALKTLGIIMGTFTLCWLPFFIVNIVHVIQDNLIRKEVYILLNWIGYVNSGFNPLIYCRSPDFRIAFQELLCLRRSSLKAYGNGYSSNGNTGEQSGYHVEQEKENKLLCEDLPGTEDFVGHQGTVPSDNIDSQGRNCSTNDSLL
Starred values were filed as active, the others as inactive; · = no result given; & = joins results of further samples.

structure	E coli growth	UCH37 DUB inh	B2AR ag	HNF4A DNA FP	Vif A3G	LANA-H2A inh	Bfl-1 A1 inh
CN(C)S(=O)(=O)c1cccc(NC(=S)N/N=C/c2cc(Br)ccc2O)c1	·	·	10	14	9%	-3.2	0.4
CCN(CC(=O)Nc1ccc2c(c1)OCCO2)S(=O)(=O)c1ccc(C)cc1	0.65	-0.3	11	3.1	5%	-3.4	1.0
CC(C)CC(=O)/C(=C\c1ccc(Cl)cc1Cl)n1cncn1	0.68	3.1	47*	-0.9	·	·	·
O=C(NNC(=O)c1cccc([N+](=O)[O-])c1)c1ccncc1	0.69	6.8	-3	-0.9	·	1.1	-0.4
N#C/C(=C(/O)CN1CCOCC1)c1nc(-c2ccccc2)cs1	·	·	12	3.4	9%	5.2	-0.3
N#Cc1cc2c(nc1SCc1nc3ccccc3[nH]1)CCC2	·	·	·	·	15%	0.8	-8.3
CCc1noc(C)c1C(=O)OCC(=O)Nc1ccc2c(c1)OCO2	0.68	1.8	-1	3.2	·	3.5	-0.5
O=C(Nc1ccccc1)/C(=C/c1ccccc1)NC(=O)c1ccco1	0.67	0.4	1	2.8	·	-2.8	-1.0
COc1ccc(C(=O)N2CCCCC2)cc1S(=O)(=O)Nc1cccc(C(=O)O)c1	0.68	4.1	6	2.5	7%	1.6	0.2
CCOC(=O)C1CCCN(C(=O)CCCOc2cc(=O)n(C)c3ccccc23)C1 (stereo unspecified)	0.71	2.8	3	-0.5	-1%	2.5	1.9
Cc1cc(=O)c(C(=O)Nc2cccc(N3CCCC3=O)c2)nn1-c1ccccc1Cl	0.65	3.6	0	-3.3	·	0.8	-1.2
Nc1cc(N)nc(SCC(=O)N2CCCCC2)n1	0.69	1.2	9	-0.5	1%	-3.8	0.2
CC(CCc1ccccc1)NC(=O)C1CCN(C(=O)c2sccc2-n2cccc2)CC1 (stereo unspecified)	0.76	0.4	-1	-1.6	-5%	-7.1	-0.6
CC1(c2ccc(Cl)cc2Cl)NC(=O)N(CC(=O)N2CCN(C(=O)c3ccco3)CC2)C1=O (stereo unspecified)	0.7	0.0	-1	1.8	-4%	-1.5	-0.4
CC(=O)Nc1cc(-c2ccc(Cl)cc2)nn1-c1ccccc1	0.63	3.7	-15	1.8	-7%	2.6	-0.6
Cc1ccc(-n2c(C)cc(C(=O)CN3CCOCC3)c2C)cc1	0.69	0.8	0	1.0	6%	-3.3	0.5
CCOc1cc(C(=O)N2CCCN(C)CC2)cc(OCC)c1OCC	0.57	2.1	1	-1.3	10%	-4.1	-0.2
COc1ccccc1N1CCN(C(=O)Nc2ccc([N+](=O)[O-])cc2)CC1	0.66	6.2	1	-0.8	-2%	4.3	-0.3
O=C(Nc1cccnc1)c1ccccc1-c1ccccc1	0.7	4.8	-19	1.0	4%	3.1	-0.1
COc1cccc(-c2noc(CCCC(=O)NC3CCCC3)n2)c1	0.71	1.8	-1	4.8	·	·	·
Cn1c(CCN2CCOCC2)nc2cc(NC(=O)COc3ccc(Cl)cc3)ccc21	0.71	1.9	-6	2.8	4%	1.1	0.2
Cc1cccc2c1-c1sc(C(=O)Nc3cccnc3)cc1CO2	0.7	-204	11	-1.1	·	-7.3	-2.7
CCc1ccc2c(CN(C)Cc3ccccc3OC)cc(=O)oc2c1	0.61	2.1	2	5.4	-9%	0.8	-0.4
Cc1ccc(OCC(=O)O/N=C(\N)Cc2cccs2)cc1C	0.74	-0.4	7	0.5	-1%	-1.6	0.2

Structures above shown as hits in B2AR ag.
Compound	UCH37 DUB inh	B2AR ag	Vif A3G	LANA-H2A inh	Bfl-1 A1 inh
CC(C)CC(=O)/C(=C\c1ccc(Cl)cc1Cl)n1cncn1	3.1	47*	·	·	·

(continued)
structure	E coli growth	UCH37 DUB inh	B2AR ag	HNF4A DNA FP	Vif A3G	LANA-H2A inh	Bfl-1 A1 inh
COc1ccc(OCc2cc(=O)[nH]c3ccccc23)cc1	0.63	3.8	-11	-1.0	·	2.5	-0.1
CNc1nc2c3ccccc3n(C(C)=O)c2s1	0.7	4.2	-3	0.0	-1%	-9.3	-0.4
CCn1c(SCC(=O)NCc2ccco2)nnc1C1CCCC1	0.69	-1.1	5	-0.6	6%	-1.0	0.4
CS(=O)(=O)c1ccccc1C(=O)Nc1ccc(S(=O)(=O)N2CCCC2)cc1	0.72	0.7	0	6.9	-8%	-5.9	0.4
c1ccc(Cn2c(CN3CCCC3)nc3ccccc32)cc1	0.66	0.7	-2	7.2	-12%	2.5	1.0
O=C(CN1CCCC1)Nc1ccc(-c2nc3cc(NC(=O)CN4CCCC4)ccc3o2)cc1	0.72	-496	11	-0.3	-4%	0.5	0.4
CCOC(=O)c1sc(NC(=O)C2CC(=O)N(c3ccc(OCC)cc3)C2)nc1C (stereo unspecified)	0.67	2.7	-2	3.0	·	-3.8	-0.4
CC(Sc1nc2ccccc2s1)C(=O)NCc1ccc2c(c1)OCO2 (stereo unspecified)	0.72	1.0	6	0.1	·	-1.8	1.1
N#C/C(=C\c1cn(CCOc2ccccc2)c2ccccc12)C(=O)NCc1ccco1	0.76	-63	5	6.4	-1%	3.8	-0.1
COc1ccccc1OCC(=O)Nc1nc2c(s1)CCCC2	0.69	1.9	-3	-2.2	·	·	·
CC(C)c1ccc(N2CC(C)(C)C2=O)cc1	0.66	3.0	0	6.0	9%	2.5	-0.4
CC(OC(=O)C1CSC2(C)CCC(=O)N12)C(=O)Nc1ccc(F)cc1 (stereo unspecified)	0.68	4.6	1	-3.0	-3%	3.0	0.3
O=C(Nc1cccc(S(=O)(=O)N2CCOCC2)c1)[C@@H]1CCCN1S(=O)(=O)c1ccc(Cl)cc1	0.66	1.4	-7	0.2	-6%	-0.3	0.4
CCn1cc(C(=O)Nc2ccc(C)c([N+](=O)[O-])c2)cn1	0.64	7.5	-2	-1.5	0%	-6.4	0.0
CC(C)=NNc1nc(-c2ccccc2)c(C)s1	0.69	0.2	0	13	7%	1.6	-0.7
CCNc1nc(SCC(=O)Nc2ccc(Cl)c(Cl)c2)nc(N2CCOCC2)n1	0.64	0.1	7	4.5	·	-20	0.6
COc1ccc(OC)c(N2C(=O)CC(C(C)c3ccccc3)C2=O)c1 (stereo unspecified)	0.7	-0.2	0	-1.2	2%	0.9	-0.3
C[C@H](CO)N1C[C@H](C)[C@@H](CN(C)S(=O)(=O)c2cccs2)Oc2c(NC(=O)CCC(F)(F)F)cccc2C1=O	·	5.2	-8	1.8	·	0.9	0.4
Cc1cc(C)cc(NCC(=O)Nc2c(C)cccc2C)c1	0.71	5.6	-1	2.6	-1%	-1.0	0.8
CC(/C=C/c1ccccc1)=N\NC(=S)NC(C)C	·	·	0	-0.4	·	-3.7	0.5
CCN(CC)S(=O)(=O)c1cccc(-c2n[nH]c(=S)n2/N=C/c2ccc(Br)cc2)c1	·	·	-8	0.8	16%	7.2	-0.3
COc1ccc(OC)c(CCNC(=O)CS(=O)(=O)Cc2nc(-c3ccccc3C)oc2C)c1	0.69	5.8	4	1.3	5%	-7.0	-0.4
CCc1nc(C)cc(N)c1OCc1ccccc1	·	·	-1	5.9	-6%	-0.8	0.1
Cc1noc(C)c1CSc1nc2ccccc2n1C	0.71	2.8	-8	-1.7	1%	-1.9	-0.4
O=C(c1oc2ccccc2c1CSCc1ccccc1)N1CCN(c2ncccn2)CC1	0.72	0.6	-5	-14	-1%	-0.2	-0.2
CC1CN(C(=O)C(c2ccccc2)c2ccccc2)CC(C)O1 (stereo unspecified)	0.76	0.4	0	2.9	4%	9.4	·
CC(C)(C)NCC(=O)N/N=C/c1ccc(OCc2ccccc2)cc1	·	·	7	-0.5	1%	-1.1	-2.0
S=C(NCCN1CCOCC1)C(=S)NCCN1CCOCC1	0.67	3.7	-2	3.3	-14%	·	·
O=C(NC1CCCCC1)N1CCCC(c2nc(-c3ccc(S(=O)(=O)N4CCCC4)cc3)no2)C1 (stereo unspecified)	0.66	3.3	8	0.1	-5%&-9%	8.1	0.1
Cc1cccc(N2C(=O)CS/C2=N\NC(=O)c2ccc(Cl)cc2)c1C	·	·	-5	-2.3	7%	-0.3	-0.3
COc1ccc(NC(=O)c2cc(-c3cc(Cl)ccc3O)n[nH]2)c(OC)c1	0.68	4.6	1	3.5	-4%	0.8	-0.2
CN(Cc1ccccc1)C(=O)CN1CCN(S(=O)(=O)c2ccc(Cl)c(Cl)c2)CC1	0.71	2.5	-3	3.3	-2%	-1.9	0.5
Cc1ccc(/C=N/NC(=O)CNC(=O)COc2ccccc2)o1	·	·	-58	0.8	·	0.2	0.0
O=C(NN=C1CCCCC1)c1ccccc1-n1cccc1	0.66	1.4	2	-1.2	·	-5.9	0.2
CN(CC(=O)Nc1ccc(OC(F)(F)F)cc1)C(=O)Cc1c(Cl)cccc1Cl	0.68	0.9	3	2.2	-1%	6.7	1.5
CC[C@]12c3[nH]c4ccc(OC)cc4c3CCN1C(=O)C(CC(=O)NCCc1ccccn1)C[C@@H]2C(=O)N1CCN(C(=O)C2CC2)CC1 (stereo partly specified)	0.7	0.3	2	-0.7	·	·	·
Cc1nc2ccccc2c(=O)n1NC(=O)c1ccccc1Br	0.63	1.4	2	1.4	-2%	-0.1	0.3
COc1ccc(-c2nnc(SCC(=O)N3c4ccccc4Sc4ccccc43)o2)cc1	0.68	5.0	8	0.3	-3%	2.1	-1.1
Cc1cc(=O)oc(C)c1C(=O)NCc1ccccn1	0.76	18	-9	-1.3	3%	2.0	0.1
CCN1C(=O)c2cccc3c(S(=O)(=O)Nc4nc(C)cs4)ccc1c23	0.78	5.0	-7	0.1	8%	-0.1	0.1
CCn1c(=O)n(CC(=O)N2CCN(c3ccccc3F)CC2)c(=O)c2ccccc21	0.71	-0.7	9	-0.6	5%	3.2	1.1
CCOC(=O)C(NC(=O)CC)(Nc1ccc(S(=O)(=O)Nc2ncccn2)cc1)C(F)(F)F (stereo unspecified)	0.7	1.5	2	-1.3	1%&3%	-2.5	-0.9
CCC(C)(C)NC(=O)C(c1ccc(OC)cc1)N(Cc1cccs1)C(=O)CCC(=O)Nc1cc(C)on1 (stereo unspecified)	0.69	2.4	-3	5.1	-2%	-0.9	0.1
CC(NC(=O)c1cccs1)C(=O)NC1=NCCS1 (stereo unspecified)	0.67	1.2	3	2.8	-5%	-1.6	0.0
Cc1ccc(C)c(OCC(=O)O/N=C(\N)c2cccc([N+](=O)[O-])c2)c1	0.62	6.5	-7	-2.3	10%	-3.3	0.2
COc1cc(C(=O)OC2CC3CCC2(C)C3(C)C)ccc1OC(C)=O (stereo unspecified)	0.76	5.5	7	-3.5	·	5.9	1.5
Cc1cc(N(C)Cc2ccccc2)nc(-c2ccccc2)n1	0.62	4.0	-2	2.8	1%	4.5	0.7
COCCNC(=O)c1nn2cccnc2c1Cl	0.7	-2.1	-2	-2.1	-1%	-0.4	1.2
Cn1c(=O)[nH]c(=O)c2c1nc(SCCN1CCOCC1)n2Cc1ccccc1	0.7	1.1	-4	-5.0	11%	-2.6	0.2
